gsp agonist: agonists of gsp mutant (McCune-Albright syndrome); gsp mutant cells, cAMP HTRF, 30 min; control for the full effect not named in the record; Potency, µM (top dose mostly 76.9 µM), for inactives: at the highest dose activation (cAMP increase), most hits filed as activators; actives 0.13% (n = 340,000); AID 624287; active = well fitted activation curve with a large enough effect; inconclusive = small, poorly fitted or top-dose-only effect, or another doubt; inactive = no such curve, though single readings can be large or run the other way; cell line not stated here;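 also: phosphodiesterase inhibitor Ro 20-1724 added with compounds to block cAMP breakdown; potency is read from the fitted curve at half-maximal effect; nearly all actives have a fitted effect of over 60% in size; about a fifth of the inactives were tested at one dose only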
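Cells in DMEM/10% FBS with G418 were pretreated with compounds in DMSO plus […] (300 uM stock) for 30 min at 37C. cAMP was measured by HTRF (cAMP-d2 plus anti-cAMP antibody-K) after 30 min at room temperature.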
Sfp PPTase inh: inhibitors of Bacillus subtilis Sfp phosphopantetheinyl transferase. actives 3.5% (n = 310,000). Potency, µM, without a hit: max response, negative = inhibition, most hits filed as inhibitors. Q9F4F7. Biochemical Sfp PPTase activity, qHTS; active = well fitted inhibition curve with a large enough effect; inconclusive = small, poorly fitted or top-dose-only effect, or another doubt; inactive = no such curve, though single readings can be large or run the other way;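 also: the enzyme is Sfp with the accession as filed and its product quenches rhodamine fluorescence; potency is read from the fitted curve at half-maximal effect; 0% = enzyme reaction without inhibitor and -100% = no enzyme wells; top concentration of the series not given in the record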
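Reaction rates are the 30-min fluorescence difference (ex 525, em 598 nm) in wells containing 15 nM Sfp, 5 uM rhodamine-CoA and 12.5 uM BHQ-2-YbbR at pH 7.6 with 10 mM MgCl2.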
TRPV1 PAM: potentiators of human vanilloid receptor 1 (TRPV1); Q8NER1; TRPV1-expressing cells, Fluo-8 calcium influx, capsaicin EC20 potentiation; host cell line not named in the record; control for the full effect not named in the record; potentiation, % at 8.33 µM; actives 0.02% (n = 320,000); AID 540277; active means potentiation above 80%; inconclusive means 30% to 80%; inactive means below 30%; also: 0% is about no effect
Target sequence (Q8NER1 whole entry, looked up): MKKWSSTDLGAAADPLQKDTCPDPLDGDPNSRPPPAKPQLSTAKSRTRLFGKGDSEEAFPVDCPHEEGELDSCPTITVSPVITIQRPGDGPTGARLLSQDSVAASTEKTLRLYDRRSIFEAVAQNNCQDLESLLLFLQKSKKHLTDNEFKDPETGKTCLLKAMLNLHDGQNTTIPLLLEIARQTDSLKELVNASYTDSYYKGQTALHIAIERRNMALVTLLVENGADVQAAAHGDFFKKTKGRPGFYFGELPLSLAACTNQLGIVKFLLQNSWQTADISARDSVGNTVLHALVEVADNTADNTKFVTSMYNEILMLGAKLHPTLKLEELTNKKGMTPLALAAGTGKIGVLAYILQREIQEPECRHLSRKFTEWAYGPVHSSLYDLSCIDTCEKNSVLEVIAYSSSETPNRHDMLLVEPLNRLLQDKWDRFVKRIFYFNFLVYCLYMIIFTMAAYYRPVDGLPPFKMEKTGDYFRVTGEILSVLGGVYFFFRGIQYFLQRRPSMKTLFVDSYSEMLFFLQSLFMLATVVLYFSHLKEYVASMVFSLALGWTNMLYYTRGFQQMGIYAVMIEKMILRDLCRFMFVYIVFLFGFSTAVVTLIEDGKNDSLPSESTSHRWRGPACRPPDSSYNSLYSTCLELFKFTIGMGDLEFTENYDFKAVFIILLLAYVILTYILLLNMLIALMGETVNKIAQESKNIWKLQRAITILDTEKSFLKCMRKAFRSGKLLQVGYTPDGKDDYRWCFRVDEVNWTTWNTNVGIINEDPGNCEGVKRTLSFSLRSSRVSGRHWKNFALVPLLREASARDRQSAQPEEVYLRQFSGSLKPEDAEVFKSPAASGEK
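TRPV1-expressing cells were cultured overnight at 35.5C and loaded with Fluo-8 calcium dye for 40 to 90 min at room temperature. After a 10 s baseline, compound was added and calcium influx was read kinetically for 3 min (ex 480/em 520 nm).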
gsp antag: gsp mutant antagonism | gsp-mutant cells, cAMP HTRF, 30 min; control for the full effect not named in the record | Potency, µM (doses to about 76.9 µM), for the others: at the top dose activity change, negative = inhibition, actives largely listed as inhibitors | actives 0.4% (n = 340,000); active = falling curve of any shape with a large fitted effect; inconclusive = falling curve, mostly with a smaller effect; inactive = flat or rising curve; cell line not stated here;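 also: intracellular cAMP measured with PDE inhibitor Ro 20-1724 present during compound exposure; potency is read from the fitted curve at half-maximal effect; % is scaled to controls: 0 for no effect and ±100 for the full control effect; nearly all actives have a fitted effect of over 65% in size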
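HTRF cAMP read-out (cAMP-d2 plus anti-cAMP antibody-K in lysis buffer, 30 min RT). Before lysis, cells are exposed to compounds with […] for 30 min at 37C in DPBS containing Ca/Mg, BSA and Tween 20.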
Menin MLL FP FL: inhibitors of human menin-MLL interaction, wild-type MLL peptide. Fluorescence polarization, fluorescein-MLL peptide displacement from menin. FP activity change, % at 61.4 µM. 290,000 tested, under 10 active; inconclusive = falling polarisation curve, or a change in total fluorescence; inactive = total fluorescence flat and polarisation flat or rising; no compound was filed as active; the % refers to the polarisation; negative = inhibition;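 also: % of control where 0% means no effect; inhibitors lower the polarisation; unlabelled MLL peptide was the positive control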
CtBP-E1A inh: CtBP/E1A binding inhibition; AlphaScreen GST-E1A/His-CtBP binding, 1536-well; stronger effect = lower value; control for the full effect not named in the record; activity change, % (test concentration not listed); actives 0.49% (n = 340,000); in the data active means activity change below about -65%; inconclusive means about -30% to -65%; inactive means above about -30%; also: % is scaled to controls: 0 for no effect and ±100 for the full control effect; compound concentration not given in the record
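GST-E1A and His-tagged CtBP (125 nM each as 5X stock) were preincubated with pin-transferred compound for 2 h at 37 °C in the dark, then glutathione donor and nickel acceptor beads were added for 1 h before AlphaScreen reading.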
ClpP mod: qHTS Assay for Activators of ClpP; purified B. subtilis ClpP, FRET peptide cleavage, 20 min; Potency, µM (top dose mostly 57.5 µM), without a hit: at the highest dose activity change, negative = active; actives 1.9% (n = 340,000); AID 651965, 2013; active = well fitted falling curve with a large enough effect; inconclusive = small, poorly fitted or top-dose-only effect; inactive = no such curve, though single readings can be large or run the other way; also: potency is read from the fitted curve at half-maximal effect; the source files actives as falling curves though it sought activators and does not explain the sign; nearly all actives have a fitted effect of over 65% in size; many hits overshoot -100%
Target sequence (P80244 whole entry, looked up): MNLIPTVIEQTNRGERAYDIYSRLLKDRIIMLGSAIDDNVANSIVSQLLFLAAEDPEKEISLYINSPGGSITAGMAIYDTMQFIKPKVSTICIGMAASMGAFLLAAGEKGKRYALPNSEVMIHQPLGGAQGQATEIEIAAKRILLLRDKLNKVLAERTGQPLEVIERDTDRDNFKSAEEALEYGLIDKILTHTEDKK
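Purified B. subtilis ClpP, 10 microg/mL final in Tris/HCl pH8 with KCl, BSA, glycerol and Tween-20, cleaved an Abz/nitrotyrosine-quenched decapeptide. Fluorescence (ex 320, em 430) was read at 0 and 20 min at room temperature. Delta was normalized to 5.8 microM ADEP and DMSO/no-enzyme controls.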
Numbers without * were called inactive; ? = inconclusive; nt = not tested or not shown; & = joins results of further samples; [ ] = dose if it differs, or a comment.

SMILES	gsp agonist	Sfp PPTase inh	TRPV1 PAM	gsp antag	Menin MLL FP FL	CtBP-E1A inh	ClpP mod
O=C(O)CN1C(=O)CC(c2ccccc2)CC1=O	-26%[15.4 µM]	13%	-1	-21%	-1.5	3	-8.6%
COC(=O)[C@@]1(Cc2ccc(OC)cc2)[C@H]2c3cc(C(=O)N4CCCC4)n(Cc4ccc(C)c(F)c4F)c3C[C@H]2CN1C(=O)c1ccccc1	nt	2%	nt	nt	5.9	-5	-5.5%
O=C(COC(=O)CC1CCCC1)Nc1ccc(Br)cc1F	1%	nt	nt	1%	nt	6	nt
O=C1C2CC=CCC2C(=O)N1c1ccc(NCCc2ccccc2)c([N+](=O)[O-])c1 (stereo not drawn)	0%	-2%	7	5%	0.1	-14	1.7%
CCCCCOc1ccc(OC(=O)c2ccncc2)cc1	-1%	11%	14	11%	-1.5	39	2.4%
CC(NCC(O)COc1ccccc1)C1COc2ccccc2O1 (stereo not drawn)	?	8%	7	9%	7.1	11	1.2%
COC(=O)CCC(=O)NNC(=O)c1cccc(Cl)c1	-14%	6%	-2	-2%	6.8	5	-0.9%
O=c1c(-c2ccc(Cl)cc2)cnc2n1CCS2	-9%[15.4 µM]	8%	28	5%	-0.8	-5	nt
O=C(NCCc1ccccc1)c1cnc2ccccc2n1	-8%	3%	-7	4%	-8.5	-3	-0.1%
Cc1c(NC(=O)c2cc3nc(-c4ccccc4)cc(C)n3n2)c(=O)n(-c2ccccc2)n1C	-37%[inhibitor]	-8%	3	-6%	3.1	-1	-15%
COc1ccccc1CCNC(=O)c1ccc(Br)s1	-32%[inhibitor]	-1%	-14	-4%	nt	9	-0.9%
Cc1ccc(C)c(OCc2cc(C(=O)NC3CCN(Cc4ccccc4)CC3)no2)c1	28%	-1%	-4	-2%	0.1	4	-1.4%
COc1ccccc1NC(=O)NCCN1C(=O)C2C3C=CC(C3)C2C1=O (stereo not drawn)	-25%	12%	-1	11%	0.4	5	-0.4%
O=C(NNc1ccc(Cl)cc1)C1CCC1	6%[15.4 µM]	12%	18	-9%	3.4	-2	0.2%
CCOC(=O)c1[nH]c2ccccc2c1NC(=O)c1ccc(S(=O)(=O)N(C)C)cc1	?	15%	-13	-8%	7.0	1	-0.2%
Brc1ccccc1OCCNCc1ccccc1	4%[15.4 µM]	-25%	8	2%	-1.7	-6	nt
O=C(N/N=C/c1cccc(F)c1)c1c(O)c2c([nH]c1=O)CCCC2	19%	11%	1	-1%	0.4	8	-2.6%
CC(C)NC(=O)CCc1nc2cccnc2n1-c1ccccc1	?	9%	-2	6%	-4.9	-20	nt
Oc1c(Br)cc(Br)cc1CNc1cnc2ccccc2c1	-41%[inhibitor]	-17%	18	-18%	7.2	-21	-14%
O=C(NCc1ccco1)c1ccc2c(c1)OCCO2	30%	7%	-3	7%	-1.6	-5	-2.4%
COc1ccc(-c2ccnc3cc(C(=O)O)nn23)cc1	15%	-59%	-1	4%	-4.6	-2	nt
O=C(CSc1nnc(Cc2csc(Nc3cccc(Cl)c3)n2)o1)N1CCc2ccccc21	8%	15%	12	?	2.7	-18	-1.4%&-0.8%
CCOC(=O)c1c(CN2CCN(C)CC2)oc2ccc(O)cc12	1%	0%	8	13%	0.3	2	-0.7%
COc1cccc(CNc2ccc3[nH]c(=O)[nH]c3c2)c1OCc1ccc(F)cc1	16%	-9%	-1	-21%	-0.7	-5	nt
CCn1ncc(/C=N\NC(=O)Cc2ccc([N+](=O)[O-])cc2)c1C	-2%	2%	3	3%	0.3	5	-12%
O=C(CCS(=O)(=O)c1ccccc1)Nc1cccc(-c2nc3ccccc3s2)c1	-11%	-1%	3	40µM*	-4.5	nt	-24%
COc1ccc(N2CCN(C(=O)CSc3nnc(C)c(=O)[nH]3)CC2)cc1	7%	?	0	-2%	19	-14	-4.4%
CC(C)(C)C(=O)N1N=C(c2ccc(NS(C)(=O)=O)cc2)CC1c1cccs1 (stereo not drawn)	0%[15.4 µM]	-5%	-28	11µM*	7.7	-1	nt
Cc1ccc(C2=NC(C)(C)N=C2SCC(=O)Nc2ccc(Cl)cc2)cc1	-27%	2%	-17	-16%	2.7	-7	-2.4%
Cc1cnc(CNC(=O)CC2C(=O)NCCN2Cc2ccccc2C(F)(F)F)cn1 (stereo not drawn)	2%	2%	7	14%	nt	-1	1.6%
CC(C)(C)NC(=O)CSc1nc2ccc(Nc3nc(N4CCOCC4)nc(N4CCOCC4)n3)cc2s1	-23%	?	-1	?	-0.8	nt	-1.1%
Cc1ccc(-c2csc(NC(=O)CSc3ncn(-c4ccccc4)n3)n2)cc1	7%	12%	-1	-4%	-1.6	3	0.9%
CC(C)CCCN1CCN=C1Nc1ccccc1	nt	12%	?	3%	-4.6	8	-2.0%
Cc1ccc(NC(=O)CN2C(=O)N/C(=C/c3ccc(C)o3)C2=O)cc1	15%	10µM*	-21	5%	21	5	-1.0%
Cc1ccc(S(=O)(=O)NCCC(=O)NCC(c2cccs2)N(C)C)cc1C (stereo not drawn)	-5%	nt	2	2%	nt	5	0.0%
COc1cc(OC)c(NS(=O)(=O)c2ccc3c(c2)NC(=O)CO3)cc1Cl	-4%	11%	-9	2%	nt	3	-0.4%
CC1(c2ccc3c(c2)OCCCO3)NC(=O)N(CC(=O)NCCc2ccc(F)cc2)C1=O (stereo not drawn)	17%	nt	nt	nt	nt	2	-10.0%
O=c1oc2cc(OCc3c(F)cccc3Cl)ccc2cc1-c1ccccn1	-22%	-8%	-2	-9%	-0.1	9	17%
Cc1cc(C)n(CCC(=O)N/N=C/c2ccc(Br)c([N+](=O)[O-])c2)n1	2%	-1%	10	-12%	-1.7	-4	nt
O=C(O)CNc1ncccc1[N+](=O)[O-]	-3%[15.4 µM]	15%	-5	nt	0.0	5	nt
COc1ccc2cc(N=Cc3nc(-c4ccc(C)cc4)oc3O)cnc2c1	12%[15.4 µM]	-9%	4	nt	-1.6	6	nt
CC1Cc2cc(/C(O)=C3\C(=O)C(=O)N(CCN(C)C)C3c3ccccc3F)ccc2O1 (stereo not drawn)	?	27%	3	8%	6.4	5	-1.5%
COc1ccc(CC(=O)NNC(=S)NC(=O)c2cccnc2)cc1	0%[15.4 µM]	?	-1	-18%	0.7	4	0.4%
COc1cc(OC)c(NC(=O)CCCn2c(=O)oc3ccccc32)cc1Cl	-24%[15.4 µM]	1%	0	13%	3.5	-19	-13%
Cc1cc(C)nc(NC(N)=NCCc2c[nH]c3ccccc23)n1	-31%[inhibitor]	1%	-4	8%	3.2	-8	nt
O=C(C=CC(=O)OC1CCCCC1)OC1CCCCC1	5%	nt	nt	7%	nt	-3	nt
CCOc1ccc(N(C(=O)CNC(=O)c2cccs2)C(C(=O)NCC2CCCO2)c2ccc(OC)c(OC)c2)cc1 (stereo not drawn)	8%[15.4 µM]	-1%	6	5%	-2.3	-14	nt
CC(NC(=O)c1ccc2nc[nH]c2c1)c1ccccc1 (stereo not drawn)	7%[15.4 µM]	6%	6	-5%	0.2	0	nt
O=[n+]1c2c(n([O-])c3ccccc31)CCC2	10%	-16%	18	7%	-2.1	3	0.5%
COC(=O)[C@@]1(Cc2ccc(F)cc2)[C@H]2c3cc(C(=O)N(C)C)n(CCF)c3C[C@H]2CN1C(=O)c1ccccc1	nt	30%	nt	nt	2.6	-2	0.2%

Two compounds drawn at random from the list so far:
SMILES	gsp agonist	Sfp PPTase inh	TRPV1 PAM	gsp antag	Menin MLL FP FL	CtBP-E1A inh	ClpP mod
COC(=O)[C@@]1(Cc2ccc(F)cc2)[C@H]2c3cc(C(=O)N(C)C)n(CCF)c3C[C@H]2CN1C(=O)c1ccccc1	nt	30%	nt	nt	2.6	-2	0.2%
CCOc1ccc(N(C(=O)CNC(=O)c2cccs2)C(C(=O)NCC2CCCO2)c2ccc(OC)c(OC)c2)cc1 (stereo not drawn)	8%[15.4 µM]	-1%	6	5%	-2.3	-14	nt

Other results
SMILES	gsp agonist	Sfp PPTase inh	TRPV1 PAM	gsp antag	Menin MLL FP FL	CtBP-E1A inh	ClpP mod
COc1ccc(O)c(C(=O)c2cc(C#N)c(=O)n(Cc3ccccc3)c2)c1	2%[15.4 µM]	13%	-4	?	27	-2	nt
O=C(OCC(=O)N1CCOCC1)c1cnc(Cl)c(Cl)c1	4%	nt	20	-16%	nt	?	0.1%
COc1ccc(C(c2sc3nc(C)nn3c2O)N2CCN(Cc3ccccc3)CC2)cc1OC (stereo not drawn)	-47%[inhibitor]	18%	2	4%	-1.1	-10	-1.5%
CCN1C(=O)c2cccc3c(S(=O)(=O)Nc4ccc(O)c(C(=O)O)c4)ccc1c23	25%	4%	-25	-14%	nt	?	-0.8%&0.8%
Oc1ccccc1C=NN=Cc1c(O)ccc2ccccc12	?	nt	nt	-11%	nt	0	0.8%
CCOc1ccc(Oc2nc(N(CC)CC)nc(N3CCOCC3)n2)nn1	3%[15.4 µM]	-8%	-7	-55%	-1.6	-7	nt
CC(=O)c1sc(NC(=O)c2cnc(Cl)c(Cl)c2)nc1C	47%[15.4 µM]	-3%	3	?	18	0	nt
COc1ccc(C(=O)COC(=O)c2cncc(Br)c2)cc1	-4%	nt	11	0%	nt	nt	1.7%
CCc1ccc(-c2nc(CN3CCC(C(=O)NCc4ccccc4OC)CC3)c(C)o2)cc1	-28%	?	-8	-11%	?	-3	-1.7%
COC(C[C@@H](O)[C@H](C)[C@H](O)COCc1ccccc1)OC	nt	2%	-25	6%	3.8	1	0.3%
CC(C)[C@H](NC(=O)N1CCn2c1nc1ccccc12)C(=O)NCc1ccccc1Cl	-25%	3%	2	-8%	-1.4	nt	-0.4%
Cc1ccc(C(=O)CCC(=O)NC2=NCCS2)cc1	-39%[inhibitor]	nt	0	-4%	nt	nt	1.1%
COc1ccc(CCC(=O)N2CCN(c3ccccc3)CC2)cc1OC	-13%	18%	-24	-3%	-0.6	1	-0.7%
Cc1cc(C(=O)Nc2ccc(S(=O)(=O)Nc3nccs3)cc2)c(C)o1	2%	-3%	0	3%	3.8	?	-0.8%
COc1cccc(CNC(=O)CSc2cc(=O)n(C)c3ccccc23)c1	26%	-2%	-2	-2%	0.4	1	nt
CCOC(=O)N1CCN(S(=O)(=O)c2cc(Br)cnc2N)CC1	25%	18%	-13	5%	1.8	3	-12%

High-throughput results as filed in PubChem.
